FPR = FPR binders displacing fluorescent formyl peptide, primary screen, U937-FPR cells, fMLFK-FITC, flow cytometry (AID 362); fMet-Leu-Phe receptor (Homo sapiens); U937-FPR cells, fMLFK-FITC displacement, flow cytometry; hits give high values; test concentration not given here; most inactive calls were filed without a number and no value below 0 was filed; inhibition, %; 1% of 4,300 active;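 active = inhibition of labelled peptide binding to the formyl peptide receptor of at least 65%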;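 also: plate controls were buffer control wells for no effect and unlabeled fMLFF blocking peptide for full effect; higher means less cell fluorescence so more probe displaced; part of the set was picked by virtual screening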
* = called active by the depositor. An excerpt; count on the stated rates, not on these rows.

For COc1cc2c(c([N+](=O)[O-])c1)NC(c1ccc(Br)cc1)C1CC=CC21 (stereo not given) the results were FPR 17.
Screening Cc1ccccc1C(=O)NC1(C(F)(F)F)C(=O)Nc2c1c(=O)[nH]c(=O)n2C (stereo not given) returned FPR inactive.
Screening Cc1ccc(S(=O)(=O)NC(C(=O)N2CCOCCOCCOCC2)C(C)C)cc1 (stereo not given) returned FPR inactive.
Screening CC(=O)N1CCc2cc(S(=O)(=O)NC(C(=O)Nc3ccc4c(c3)OCO4)C(C)C)ccc21 (stereo not given) returned FPR inactive.
Screening O=C(NC(C(=O)N1CCOCC1)C12CC3CC(CC(C3)C1)C2)c1ccc([N+](=O)[O-])cc1 (stereo not given) returned FPR 4.
CC1(C)CC(=O)C=C(Nc2ccccc2O)C1 was read as FPR inactive.
For CCOC(=O)C1=C(C)NC2=C(C(=O)C(C(=O)OC)C(C)C2)C1c1cc2c(cc1Br)OCO2 (stereo not given) the results were FPR 19.
For CCOc1cc2c(C(=O)O)cn(CC(C)C)c(=O)c2cc1OCC the results were FPR 70*.
`O=C(O)c1ccc(NC(=O)C2CC=CCC2C(=O)O)cc1O` (stereo not given) gave FPR inactive.
O=C(Oc1cccc2cccnc12)c1cccc(N2C(=O)C3C4CCC(C4)C3C2=O)c1 (stereo not given) was read as FPR 25.
COc1ccc(Cl)cc1Nc1nc(C)nc2sc3c(c12)CCCC3 was read as FPR inactive.
`COC(=O)CNC(=O)Cn1cnc2sc(C)c(S(=O)(=O)N3CCC(C)CC3)c2c1=O` gave FPR inactive.
For CCOC(=O)COc1cc(OCC(=O)OCC)c2c3c(c(=O)oc2c1)CCCC3 the results were FPR inactive.
`CCOc1ccccc1N(C)C(=O)Cn1cnc2sc(C)c(S(=O)(=O)N3CCC(C)CC3)c2c1=O` gave FPR inactive.
Screening Cc1ccc(C(=O)C2C(c3cccc(Oc4ccccc4)c3)NC(=O)NC2(O)C(F)(F)F)cc1 (stereo not given) returned FPR inactive.
`CC(C)CC(Nc1ncnc2sc3c(c12)CCC3)C(=O)O` (stereo not given) gave FPR 11.
Screening COc1ccccc1-c1c(C(F)(F)F)oc2cc(OC(C)C(=O)OCC(C)C)ccc2c1=O (stereo not given) returned FPR inactive.
`CC(=O)c1ccc(NC(=O)C2CCC(CNS(=O)(=O)c3ccc(Br)s3)CC2)cc1` (stereo not given) gave FPR inactive.
Screening CCN1CCN(Cc2c(O)ccc3c(=O)c(Oc4ccccc4Br)c(C(F)(F)F)oc23)CC1 returned FPR 15.
For CCSCCOC(=O)C1=C(C)NC2=C(C(=O)C(C(=O)OC)C(C)C2)C1c1cccc(Cl)c1 (stereo not given) the results were FPR 20.
CC(=O)c1ccc(NC(=O)C(NS(=O)(=O)c2ccc3c(c2)CCN3C(C)=O)C(C)C)cc1 (stereo not given) was read as FPR inactive.
`CCOC(=O)c1cc2c(=O)n3ccccc3nc2n(CC(C)C)c1=NC(=O)c1cccc(Cl)c1` gave FPR inactive.
`COC(=O)C1C(=O)C2=C(CC1C)NC(C)=C(C(=O)OC(C)C)C2c1ccc(O)cc1` (stereo not given) gave FPR 11.
CC(C)c1ccc(C2C3=C(CC(C)(C)CC3=O)Nc3[nH]n(-c4ccccc4)c(=O)c32)cc1 (stereo not given) was read as FPR 57.
CCc1ccc(Oc2c(C(F)(F)F)oc3c(CN(CC)CC)c(O)ccc3c2=O)cc1 was read as FPR inactive.
COCCOC(=O)C1=C(C)NC2=C(C(=O)C(C(=O)OC)C(C)C2)C1c1cc(OC)c(O)c(OC)c1 (stereo not given) was read as FPR 3.
Screening Cc1cccc(Oc2c(C(F)(F)F)oc3cc(OC(C)C(=O)OC(C)C)ccc3c2=O)c1 (stereo not given) returned FPR inactive.
`COc1ccc(C(=O)NCC2(c3ccc(OC)c(OC)c3)CCCC2)cc1` gave FPR inactive.
For COc1cc(C2Nc3c(ccc4ccccc34)C3=C2CCCC3=O)cc(Br)c1OC(C)C (stereo not given) the results were FPR 4.
Screening CN(C)Cc1c(O)ccc2c(=O)c(Oc3ccc4ccccc4c3)c(C(F)(F)F)oc12 returned FPR inactive.
Screening Cc1sc2ncn(CC(=O)N(C)Cc3ccccc3)c(=O)c2c1S(=O)(=O)N1CCC(C)CC1 returned FPR inactive.
`CC1=C(C(=O)OC2CCCCC2)C(c2ccc3c(c2)OCO3)C2=C(CCCC2=O)N1` (stereo not given) gave FPR 30.
Screening COC(=O)C1C(=O)C2=C(CC1C)NC(C)=C(C(=O)OC(C)C)C2c1ccc(OC)cc1OC (stereo not given) returned FPR 6.
Screening O=C(c1ccc(COCC(F)(F)F)o1)N1CCCCCC1 returned FPR inactive.
COc1ccc(C(CCNCc2ccc(N(C)C)cc2)C2CCOC(C)(C)C2)cc1 (stereo not given) was read as FPR 2.
Screening O=C(C1CCC(CNS(=O)(=O)c2ccc(Br)s2)CC1)N1CCCC1 (stereo not given) returned FPR 14.
Screening CCc1cc2c3c(c(=O)oc2cc1OCC(=O)O)CCCC3 returned FPR inactive.
`O=C(CSc1nc2ccccc2c(=O)n1CC1CCC(C(=O)NCc2ccccc2Cl)CC1)NCc1ccco1` (stereo not given) gave FPR inactive.
Screening CCOC(=O)C1CCC(CN(Cc2ccc(OC)cc2)S(=O)(=O)c2cccc([N+](=O)[O-])c2)CC1 (stereo not given) returned FPR inactive.
Screening CC1=C(C(=O)OC2CCCC(C)C2)C(c2ccc([N+](=O)[O-])cc2)NC(=O)N1 (stereo not given) returned FPR inactive.
For CC(C)Cn1cc(C(=O)NCCCN2CCC(C)CC2)c2c3ccccc3n(C)c2c1=O the results were FPR inactive.
For CC1=C(C(=O)OC2CCCC2)C(c2cc3c(cc2[N+](=O)[O-])OCO3)NC(=O)N1C (stereo not given) the results were FPR 10.
Screening CC1(C)CC(=O)C2=C(C1)OC(N)=C(C#N)C2c1ccc(F)cc1 (stereo not given) returned FPR 8.
For COc1cccc(C2C(C(=O)OCC(C)C)=C(C)NC3=C2C(=O)CC(c2cccs2)C3)c1 (stereo not given) the results were FPR inactive.
Screening COC(=O)C1C(=O)C2=C(CC1C)NC(C)=C(C(=O)OCCOC(C)C)C2c1cccc(Cl)c1 (stereo not given) returned FPR 22.

By substructure, those above with bromine (6)
For COc1cc2c(c([N+](=O)[O-])c1)NC(c1ccc(Br)cc1)C1CC=CC21 (stereo not given) the results were FPR 17.
For CCOC(=O)C1=C(C)NC2=C(C(=O)C(C(=O)OC)C(C)C2)C1c1cc2c(cc1Br)OCO2 (stereo not given) the results were FPR 19.
`CC(=O)c1ccc(NC(=O)C2CCC(CNS(=O)(=O)c3ccc(Br)s3)CC2)cc1` (stereo not given) gave FPR inactive.
Screening CCN1CCN(Cc2c(O)ccc3c(=O)c(Oc4ccccc4Br)c(C(F)(F)F)oc23)CC1 returned FPR 15.
For COc1cc(C2Nc3c(ccc4ccccc34)C3=C2CCCC3=O)cc(Br)c1OC(C)C (stereo not given) the results were FPR 4.
Screening O=C(C1CCC(CNS(=O)(=O)c2ccc(Br)s2)CC1)N1CCCC1 (stereo not given) returned FPR 14.

Following part:
Screening O=C(O)CCn1c(C2CCCCC2)nc2ccccc21 returned FPR inactive.
For CCc1ccc(NC(=O)Cn2cnc3sc(C)c(S(=O)(=O)N4CCC(C)CC4)c3c2=O)cc1 the results were FPR inactive.
`COc1cc(C2NC(=O)NC(C)=C2C(=O)OCC2CCCCC2)ccc1OCc1ccccc1` (stereo not given) gave FPR inactive.
`CCCCOC(=O)C1=C(C)NC(=O)NC1c1cc(OC)c(O)c(OC)c1` (stereo not given) gave FPR inactive.
`CCOc1ccc(N2C(=O)CSC23CCCCC3)cc1` gave FPR 47.
CCOC(=O)C1C(=O)C=C(c2ccc(OC)cc2)CC1c1cccc(OC)c1 (stereo not given) was read as FPR inactive.
O=C(CSc1c2c(nc3ccccc13)CCCC2)NCc1ccco1 was read as FPR inactive.
`CCCC1=C(C(=O)OCC)C(c2cccc(OC)c2OC)n2ncnc2N1` (stereo not given) gave FPR inactive.
For O=C1CSC2(N1)C1CC3CC2CC(O)(C3)C1 (stereo not given) the results were FPR inactive.
Screening COc1ccc2c(c1)CCCC21SC(NC(C)=O)=NN1C(C)=O (stereo not given) returned FPR 1.
For CCCCN(CC)C(=O)c1cc2cc3cc(OC)ccc3nc2s1 the results were FPR 29.
`CCCCN(CC)C(=O)c1sc2ncnc(N3CCN(c4ccccc4)CC3)c2c1C` gave FPR 20.
CN(C)c1ccc(C(c2cc(C(C)(C)C)c(O)c(C(C)(C)C)c2)N2CCCCC2)cc1 (stereo not given) was read as FPR 36.
Screening O=C(NCCc1ccccc1)C1CCC(CNS(=O)(=O)c2ccc(Cl)cc2)CC1 (stereo not given) returned FPR inactive.
`O=C(CSc1nc2ccsc2c(=O)n1CC1CCC(C(=O)O)CC1)Nc1nccs1` (stereo not given) gave FPR inactive.
`CCCCOC(=O)c1ccc(NC(=O)C23CC4CC(C2)CC(n2cnc([N+](=O)[O-])n2)(C4)C3)cc1` gave FPR 4.
Screening COc1ccccc1-c1c(C(F)(F)F)oc2c(CN3CCN(C)CC3)c(O)ccc2c1=O returned FPR inactive.
For Cc1ccc(NC(=O)C2CCC(CNS(=O)(=O)c3ccc(Br)s3)CC2)cc1F (stereo not given) the results were FPR 9.
`COc1ccc(C2(CNS(=O)(=O)c3ccccc3)CCCC2)cc1OC` gave FPR inactive.
`COc1ccc(C2(CCNC(C)c3ccccc3)CCOC(C)(C)C2)cc1` (stereo not given) gave FPR inactive.
`CC(=O)c1ccc2c(c1)[C@@H]1C=CC[C@@H]1[C@H](c1cc3c(cc1Br)OCO3)N2` gave FPR inactive.
`CC1CCCN(C(C(=O)Nc2ccc(C(C)C)cc2)c2cc3c(cc2[N+](=O)[O-])OCO3)C1` (stereo not given) gave FPR inactive.
`CCOC(=O)C1=C(N)OC2=C(C(=O)CC(C)(C)C2)C1c1ccccc1[N+](=O)[O-]` (stereo not given) gave FPR 14.
CC(C)c1nnc(NC(=O)C(C(C)C)N2C(=O)c3ccccc3C2=O)s1 (stereo not given) was read as FPR 37.
For CC(C)C(NS(=O)(=O)c1cccc2nsnc12)C(=O)O (stereo not given) the results were FPR inactive.
`CCCCOc1ccc(C(O)(CCC)CCN2CCOCC2)cc1` (stereo not given) gave FPR inactive.
Screening COc1ccc(NC(=O)C2CCC(CNS(=O)(=O)c3cccs3)CC2)cc1 (stereo not given) returned FPR inactive.
Screening COC(=O)C1=C(N)OC2=C(C(=O)CC(C)(C)C2)C1c1cccc(Br)c1 (stereo not given) returned FPR inactive.
`CCOC(=O)c1c(NC(=O)C(CC(C)C)N2C(=O)c3ccccc3C2=O)sc2c1CCCC2` (stereo not given) gave FPR 1.
For CC(C)C(NC(=O)COc1cccc(Br)c1)C(=O)O (stereo not given) the results were FPR inactive.

Five entries picked at random from those above, as already listed:
`O=C(CSc1nc2ccsc2c(=O)n1CC1CCC(C(=O)O)CC1)Nc1nccs1` (stereo not given) gave FPR inactive.
For Cc1ccc(NC(=O)C2CCC(CNS(=O)(=O)c3ccc(Br)s3)CC2)cc1F (stereo not given) the results were FPR 9.
CC(C)c1ccc(C2C3=C(CC(C)(C)CC3=O)Nc3[nH]n(-c4ccccc4)c(=O)c32)cc1 (stereo not given) was read as FPR 57.
For CCOc1cc2c(C(=O)O)cn(CC(C)C)c(=O)c2cc1OCC the results were FPR 70*.
CC1(C)CC(=O)C=C(Nc2ccccc2O)C1 was read as FPR inactive.

(next part)
`CCCOCCOC(=O)C1=C(C)NC2=C(C(=O)C(C(=O)OC)C(C)C2)C1c1ccc(OCC)cc1` (stereo not given) gave FPR 28.
Screening COc1ccc(CN(CC2CCC(C(=O)NO)CC2)S(=O)(=O)c2cccc([N+](=O)[O-])c2)cc1 (stereo not given) returned FPR 7.
CCCC1=C(C(=O)OCC)C(c2cc(Br)ccc2OC)n2ncnc2N1 (stereo not given) was read as FPR inactive.
`COc1ccccc1-c1c(C(F)(F)F)oc2cc(OC(=O)C(C)C)ccc2c1=O` gave FPR 92*.
CC(=O)C1C(c2ccncc2)NC(=O)NC1(O)C(F)(F)F (stereo not given) was read as FPR inactive.
For CC(C)C(C(=O)O)n1c(O)c(C2=c3ccccc3=NC2=O)sc1=S (stereo not given) the results were FPR 106*.
`CN(Cc1c(O)ccc2c(=O)c(Oc3ccccc3Br)c(C(F)(F)F)oc12)C1CCCCC1` gave FPR inactive.
Screening O=C(NCCCN1CCOCC1)C1CCC(CNS(=O)(=O)c2ccc(F)cc2)CC1 (stereo not given) returned FPR inactive.
`CCSCCOC(=O)C1=C(C)NC2=C(C(=O)C(C(=O)OC)C(C)C2)C1c1ccc(O)c(OC)c1` (stereo not given) gave FPR 14.
For CCCCN(c1ccccc1)S(=O)(=O)c1cccc2nsnc12 the results were FPR inactive.
For COC(=O)c1ccccc1NC(=O)CSc1nc2ccsc2c(=O)n1CCCCCC(=O)Nc1ccc(OC)cc1 the results were FPR 0.
Screening CCN(CC)CCNc1c2c(c(C#N)c3nc4ccccc4n13)CCCC2 returned FPR 8.
For CCOC(=O)c1cc2c(=O)n3ccccc3nc2n(C2CCCC2)c1=N the results were FPR 9.
`CC(C)Cn1c(CN(Cc2ccccc2)Cc2ccccc2)nc2c1c(=O)n(C)c(=O)n2C` gave FPR inactive.
Screening CCOC(=O)C1=C(C(F)(F)F)Nc2nnnn2C1c1cc(OC)c(OC)cc1OC (stereo not given) returned FPR 4.

The list goes on; the last two above are carried over.
`CC(C)Cn1c(CN(Cc2ccccc2)Cc2ccccc2)nc2c1c(=O)n(C)c(=O)n2C` gave FPR inactive.
Screening CCOC(=O)C1=C(C(F)(F)F)Nc2nnnn2C1c1cc(OC)c(OC)cc1OC (stereo not given) returned FPR 4.
COC(=O)C1C(=O)C2=C(CC1C)NC(C)=C(C(=O)OC1CCCC1)C2c1ccc(C)cc1 (stereo not given) was read as FPR inactive.
`CNC(=O)c1cc2c(=O)n3ccccc3nc2n(C2CCCC2)c1=N` gave FPR inactive.
`COC(=O)c1cccc(N2COc3ccc4c5c(c(=O)oc4c3C2)CCC5)c1` gave FPR inactive.
O=C1C2C3C=CC(C2C(=O)N1CCO)C1C2C(=O)N(CCO)C(=O)C2C31 (stereo not given) was read as FPR inactive.
`O=S(=O)(Cc1ccccc1)/C1=C(\N2CCOCC2)CCCCCC1` gave FPR 4.
